Source: PubChem BioAssay
rRNA inh HTS – inhibits bacterial ribosomal RNA function over humanized ribosomes. E. coli WT GFP vs humanized-ribosome RFP mutants, fluorescence, 24 h; hits give low values; DMSO median 0, no signal -100. GFP signal change (wild-type ribosome), % (concentration not given with the values). actives 1.6% (n = 350,000). AID 720706;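 active means significant combined selectivity score with lowered wild-type GFP, culture density cut under 30%, mutant RFP and density less affected; inactive means any of these conditions unmet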; further: one replicate is shown; some compounds called inactive have numbers as strong as hits
rRNA inh HTS OD600 – recorded beside rRNA inh HTS, whose call it bears; OD600 change, %; measured here: OD600 growth;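 optical density of the mix in the first replicate; 0 = DMSO median and -100 = no signal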
rRNA inh HTS RFP – further read-out of rRNA inh HTS, marked with its call; RFP signal change, %; measured here: RFP humanized mutant strains;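 first replicate; 0 = DMSO median and -100 = no signal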
Starred values were filed as active, the others as inactive. A portion of the library; rates above refer to the full screens.

structure,rRNA inh HTS,rRNA inh HTS OD600,rRNA inh HTS RFP
COc1ccc(C(=O)C(=O)N2CCC(Cc3ccccc3)CC2)cc1OC,-18,-48,-3.5
C[C@@H]1CN([C@@H](C)CO)C(=O)c2cccc(NC(=O)c3nc4ccccc4s3)c2O[C@@H]1CN(C)C(=O)NC1CCCCC1,-10,-12,-3.0
COC(=O)C1=C(C)N(Cc2ccc(C(F)(F)F)cc2)C(=NCc2ccccc2C(F)(F)F)NC1c1ccc(F)cc1 (stereo unspecified),-14,-59,8.9
CCCNC(=O)N(C)C[C@@H]1Oc2cc(-c3cccnc3)ccc2S(=O)(=O)N([C@@H](C)CO)C[C@@H]1C,2,11,-3.7
CO[C@H]1CN(C)C(=O)c2ccc(NS(=O)(=O)c3ccc(Oc4ccccc4)cc3)cc2OC[C@H](C)NC[C@H]1C,3,-3,5.1
C[C@@H]1CN([C@@H](C)CO)C(=O)c2cc(N(C)C)ccc2O[C@@H](C)CCCCO[C@@H]1CN(C)Cc1ccc2c(c1)OCO2,-2,3,-1.9
Cc1noc(C)c1NC(=O)Nc1cccc2c1O[C@H](CN(C)S(=O)(=O)c1cccs1)[C@H](C)CN([C@@H](C)CO)C2=O,1,7,0.1
CC(=O)Nc1cccc(-c2csc(C(C)(O)c3cccc(F)c3)n2)c1 (stereo unspecified),1,-21,2.3
COc1ccc(C#Cc2ccc([C@@H]3[C@H](CO)N4C(=O)CN(C(C)=O)C[C@@H]34)cc2)cc1,-3,-13,-2.1
COc1cccc(S(=O)(=O)N(C)C[C@H]2Oc3ncc(C#CC(C)C)cc3C(=O)N([C@@H](C)CO)C[C@H]2C)c1,-1,-12,-2.9
CCC(=O)N1CCC1(C)C(=O)Nc1ccc2c(c1)CCN2C(C)=O (stereo unspecified),5,0,-0.5
O=C1CCC(NC(=O)Cc2ccccc2)C(=O)N1 (stereo unspecified),8,-2,7.0

Part of the list above in another layout.
rRNA inh HTS	rRNA inh HTS OD600	rRNA inh HTS RFP	Structure
-18	-48	-3.5	COc1ccc(C(=O)C(=O)N2CCC(Cc3ccccc3)CC2)cc1OC
-10	-12	-3.0	C[C@@H]1CN([C@@H](C)CO)C(=O)c2cccc(NC(=O)c3nc4ccccc4s3)c2O[C@@H]1CN(C)C(=O)NC1CCCCC1
-14	-59	8.9	COC(=O)C1=C(C)N(Cc2ccc(C(F)(F)F)cc2)C(=NCc2ccccc2C(F)(F)F)NC1c1ccc(F)cc1 (stereo unspecified)
2	11	-3.7	CCCNC(=O)N(C)C[C@@H]1Oc2cc(-c3cccnc3)ccc2S(=O)(=O)N([C@@H](C)CO)C[C@@H]1C
3	-3	5.1	CO[C@H]1CN(C)C(=O)c2ccc(NS(=O)(=O)c3ccc(Oc4ccccc4)cc3)cc2OC[C@H](C)NC[C@H]1C
-2	3	-1.9	C[C@@H]1CN([C@@H](C)CO)C(=O)c2cc(N(C)C)ccc2O[C@@H](C)CCCCO[C@@H]1CN(C)Cc1ccc2c(c1)OCO2
1	7	0.1	Cc1noc(C)c1NC(=O)Nc1cccc2c1O[C@H](CN(C)S(=O)(=O)c1cccs1)[C@H](C)CN([C@@H](C)CO)C2=O
1	-21	2.3	CC(=O)Nc1cccc(-c2csc(C(C)(O)c3cccc(F)c3)n2)c1 (stereo unspecified)
-3	-13	-2.1	COc1ccc(C#Cc2ccc([C@@H]3[C@H](CO)N4C(=O)CN(C(C)=O)C[C@@H]34)cc2)cc1
-1	-12	-2.9	COc1cccc(S(=O)(=O)N(C)C[C@H]2Oc3ncc(C#CC(C)C)cc3C(=O)N([C@@H](C)CO)C[C@H]2C)c1

The list goes on:
structure,rRNA inh HTS,rRNA inh HTS OD600,rRNA inh HTS RFP
CN1C(=O)c2cc(NC(=O)c3cnccn3)ccc2OC[C@H]2O[C@@H](CC(=O)NC3CCC3)CC[C@@H]21,-1,-8,-1.6
O=C1NC[C@H](CCCCN2C[C@H](Cc3ccc(O)cc3)N(CCc3ccc(O)cc3)C(=O)C2=O)N(CC2CCCCC2)C1=O,6,5,10
COc1ccc(NC(=O)COC(=O)c2ccc(S(=O)(=O)N3CCCCC3)cc2)c(OC)c1,5,4,4.0
CCCNC(=O)N(C)C[C@H]1Oc2ncc(Br)cc2C(=O)N([C@@H](C)CO)C[C@@H]1C,7,3,-2.6
CCNC(=O)[C@H]1[C@H](CO)[C@H]2Cn3c(ccc(-c4ccccc4)c3=O)[C@@H]1N2C(=O)C1CC1,1,-1,0.1
COc1ccc(CN(C)C[C@@H]2OCCCC[C@@H](C)Oc3ccc(NC(=O)CCCN(C)C)cc3C(=O)N([C@H](C)CO)C[C@H]2C)cc1,0,8,-0.2
O=C(NC[C@@H]1N[C@@H](CO)[C@H]1c1ccc(-c2cccnc2)cc1)C1CCCC1,-2,-3,-3.6
Cc1ccccc1S(=O)(=O)N1C[C@H](O)COC[C@@H]2O[C@@H](CC(=O)N3CCC(Cc4ccccc4)CC3)CC[C@H]21,-16,-42,1.3
CCCC(=O)Nc1ccc2c(c1)OC[C@@H](C)N(C(=O)CC1CC1)C[C@@H](C)[C@@H](OC)CN(C)C2=O,2,2,-2.3
O=C(NCCc1ccccc1)[C@H]1[C@H](CO)[C@H]2Cn3c(cccc3=O)[C@H]2N1Cc1ccccc1,-2,1,0.6
Cc1noc(C)c1S(=O)(=O)Nc1ccc2c(c1)C(=O)N([C@H](C)CO)C[C@H](C)[C@@H](CN(C)CC1CCCCC1)O2,3,1,0.0
N#C[C@@H]1[C@H](c2ccc(C#CCC3CCCC3)cc2)[C@@H](CO)N1C(=O)c1ccccn1,-17,-50,9.1
CC(C)C#Cc1cnc2c(c1)C(=O)N([C@H](C)CO)C[C@@H](C)[C@@H](CN(C)C(=O)Cc1ccccn1)O2,1,-4,-1.1
CO[C@@H]1CN(C)C(=O)c2ccc(NC(=O)c3ccccc3)cc2OC[C@H](C)N(C(=O)CN(C)C)C[C@@H]1C,-1,1,-2.8
C[C@@H]1CCCCO[C@@H](CN(C)Cc2ccc(C(=O)Nc3ccccc3N)cc2)[C@@H](C)CN([C@H](C)CO)C(=O)c2cc(NC(=O)Nc3ccc4c(c3)OCO4)ccc2O1,-1,6,-0.8
O=C(N[C@@H]1CC[C@H](CCNC(=O)C2CCOCC2)O[C@@H]1CO)c1ccncc1,3,0,-0.4
COC(=O)C[C@H]1CC[C@H](NS(=O)(=O)c2ccccc2F)[C@H](CO)O1,1,6,-0.3
CCC(=O)N1CC2(C1)CN(Cc1nccs1)[C@H](CO)c1c2c2ccc(OC)cc2n1C,3,-2,-3.0
CCC(=O)N(C)C[C@@H]1Oc2cc(C#C[C@@H](C)O)ccc2S(=O)(=O)N([C@H](C)CO)C[C@@H]1C,2,5,-1.4
O=C(C[C@H]1CC[C@@H]2[C@H](COC[C@H](O)CN2S(=O)(=O)c2ccc(Cl)cc2)O1)N[C@H]1CCN(Cc2ccccc2)C1,-3,6,5.5
COCC(=O)N1[C@@H](CO)[C@H](c2ccc(-c3ccccc3)cc2)C12CN(C(C)=O)C2,0,3,1.4
CO[C@@H]1CN(C)C(=O)c2ccc(NC(=O)c3cccc(F)c3)cc2OC[C@@H](C)N(C)C[C@H]1C,-1,-2,-0.2
N#C[C@@H]1[C@H](c2ccccc2-c2cccc(F)c2)[C@H](CO)N1C(=O)c1cccnc1,-5,-5,-4.1
COc1ccc(CC(N)c2csc(Nc3ccc(C(C)=O)cc3)n2)cc1 (stereo unspecified),-1,6,0.5
O=C(C[C@H]1CC[C@@H]2[C@H](COC[C@@H](O)CN2C(=O)c2cnccn2)O1)NCc1ccccc1,3,0,-5.9
COc1cccc(-c2cnc3c(c2)C(=O)N([C@@H](C)CO)C[C@@H](C)[C@@H](CN(C)C(=O)CC2CC2)O3)c1,0,8,1.1
COc1cccc(-c2ccc3n(c2=O)C[C@@H]2[C@@H](CO)[C@H](C(=O)N(C)C)[C@H]3N2CC2CC2)c1,0,-3,-2.1
O=C(c1ccccn1)N1CC(=O)N2[C@H](C1)[C@H](c1ccc(-c3cccc(F)c3)cc1)[C@@H]2CO,1,9,0.1
C[C@@H]1CN([C@H](C)CO)C(=O)c2c(c3ccccc3n2C)-c2ccccc2CO[C@H]1CN(C)S(=O)(=O)c1ccccc1F,1,2,-0.3
Cc1nc(N2CCN(S(=O)(=O)c3cccs3)CC2)c2c(-c3ccccc3)c(C)sc2n1,1,-4,6.4
C[C@@H]1CN([C@H](C)CO)C(=O)Cc2cc(NC(=O)Nc3ccccc3)ccc2O[C@@H]1CN(C)Cc1ccc(Oc2ccccc2)cc1,4,16,1.3
C[C@H]1CN([C@@H](C)CO)C(=O)Cc2cc(NC(=O)Nc3ccc(C(F)(F)F)cc3)ccc2O[C@@H]1CN(C)Cc1ccc(C(=O)O)cc1,-1,-3,-2.9
CCCNC(=O)N1[C@@H]2CN(C(=O)C3CCOCC3)c3ccccc3[C@@H]2[C@@H]1CO,3,4,-0.8
COc1ccccc1-c1cn(CC[C@H]2CC[C@@H](NC(=O)C3CCCCC3)[C@H](CO)O2)nn1,-5,-19,0.9
CCN1[C@@H]2Cn3c(ccc(-c4cccc(OC)c4)c3=O)[C@H]1[C@@H](C(=O)N(C)C)[C@@H]2CO,2,6,0.8
N#C[C@@H]1[C@@H](c2ccc(-c3cncnc3)cc2)[C@H](CO)N1C(=O)C1CCC1,-1,6,1.0
O=C(c1ccccc1F)N1CC2(C1)[C@H](c1ccccc1)[C@H](CO)N2CC1CCCC1,-55,-75,-6.3
C[C@H](CO)N1C[C@H](C)[C@@H](CN(C)C(=O)[C@H](Cc2ccccc2)N(C)C)OCc2ccccc2-c2c(n(C)c3ccccc23)C1=O,0,2,3.1
CCN(CC)c1ccc(C(=O)NNC(=O)C2CCN(c3ncnc4sc(C)c(C)c34)CC2)cc1,-5,-5,3.8
C[C@@H]1CN([C@@H](C)CO)C(=O)CCCn2cc(nn2)CO[C@H]1CN(C)Cc1ccncc1,4,8,-1.9
O=C(Nc1ccccc1)Nc1ccc2c(c1)[C@H]1C[C@@H](CC(=O)N3CCOCC3)O[C@H](CO)[C@H]1O2,0,-5,0.2
C[C@@H]1CN([C@@H](C)CO)C(=O)c2cc(NC(=O)C3CCCCC3)ccc2O[C@@H](C)CCCCO[C@H]1CN(C)C(=O)Nc1cccc2ccccc12,1,2,-0.3
CCCCn1nnnc1C(c1cccc(OC)c1OC)N1CCN(C/C=C/c2ccccc2)CC1 (stereo unspecified),-44,-78,-9.7
C[C@H](CO)N1C[C@H](C)[C@H](CN(C)S(=O)(=O)c2cccs2)Oc2ncc(-c3ccccc3)cc2C1=O,-6,-3,0.3
C[C@@H]1CCCCO[C@H](CN(C)S(=O)(=O)c2ccccc2)[C@@H](C)CN([C@@H](C)CO)C(=O)c2cc(NS(=O)(=O)c3ccc(F)cc3)ccc2O1,-1,-4,-1.2
Cc1ccc(S(=O)(=O)NC[C@H]2O[C@@H](n3ccc(N)nc3=O)[C@H](O)[C@@H]2O)s1,12,12,1.2
CCCNC(=O)C[C@@H]1C[C@H]2c3cc(NC(=O)CN(C)C)ccc3O[C@H]2[C@H](CO)O1,0,5,-0.3
CC(C)NC(=O)N1[C@H](CO)[C@@H](c2ccc(C#CC3CC3)cc2)[C@@H]1C#N,14,-14,0.5
C[C@@H](NC(=O)C[C@@H]1C=C[C@@H](NC(=O)C2CC2)[C@@H](CO)O1)c1ccccc1,4,7,-1.6
O=C(C[C@@H]1C[C@H]2c3cc(NC(=O)Nc4ccccc4F)ccc3O[C@H]2[C@@H](CO)O1)NCc1ccc(Oc2ccccc2)cc1,-4,-3,-1.1
C[C@@H]1CCCCO[C@H](CN(C)S(=O)(=O)c2ccc(F)cc2)[C@@H](C)CN([C@@H](C)CO)C(=O)c2cc(NC(=O)C3CCCCC3)ccc2O1,1,0,0.0
CC(C)(O)C#Cc1ccc([C@H]2[C@H]3CN(S(C)(=O)=O)CCCCN3[C@H]2CO)cc1,5,15,-1.1
C[C@@H]1CCCCO[C@H](CN(C)C(=O)Nc2ccccc2)[C@@H](C)CN([C@H](C)CO)C(=O)c2cc(NC(=O)Nc3ccc4c(c3)OCO4)ccc2O1,3,2,-4.0
CCCc1cc(CN(C)C(=O)c2ccc(OC3CCN(C(C)=O)CC3)c(OC)c2)[nH]n1,-1,-1,2.7
C[C@@H]1CCCCO[C@@H](CN(C)Cc2ccc3c(c2)OCO3)[C@@H](C)CN([C@@H](C)CO)C(=O)c2cc(NC(=O)C3CCCCC3)ccc2O1,3,-11,1.8
COc1ccc(CN(C)C[C@H]2Oc3ccc(NS(=O)(=O)c4ccccc4)cc3C(=O)N([C@@H](C)CO)C[C@H]2C)cc1,4,-6,1.5
C[C@@H]1CN([C@@H](C)CO)C(=O)Cc2cc(NS(=O)(=O)c3ccc(F)cc3)ccc2O[C@@H]1CN(C)CC1CC1,4,5,-3.2
C[C@H](CO)N1C[C@H](C)[C@H](CN(C)S(=O)(=O)c2ccc(Cl)cc2)Oc2c(NS(=O)(=O)c3ccccc3)cccc2C1=O,0,-10,-1.6
O=C(Cc1ccccn1)N1CC(=O)N2[C@H](CO)[C@H](c3ccc(C#CC4CCCC4)cc3)[C@@H]2C1,7,7,3.1
O=C(Nc1ccc(C(F)(F)F)cc1)N[C@H]1C=C[C@H](CC(=O)N2CCCCC2)O[C@H]1CO,-4,-3,-1.6
CCCN1C[C@@H](C)[C@H](OC)CN(C)C(=O)c2ccc(NC(=O)c3cccc(F)c3)cc2OC[C@@H]1C,-4,-1,-1.3

An excerpt from above, limited to rRNA inh HTS RFP and rRNA inh HTS.
| canonical_smiles | rRNA inh HTS RFP | rRNA inh HTS |
| --- | --- | --- |
| C[C@@H]1CN([C@@H](C)CO)C(=O)Cc2cc(NS(=O)(=O)c3ccc(F)cc3)ccc2O[C@@H]1CN(C)CC1CC1 | -3.2 | 4 |
| C[C@@H]1CCCCO[C@H](CN(C)S(=O)(=O)c2ccc(F)cc2)[C@@H](C)CN([C@@H](C)CO)C(=O)c2cc(NC(=O)C3CCCCC3)ccc2O1 | 0.0 | 1 |
